Assay outcomes: PubChem BioAssay, National Center for Advancing Translational Sciences (NCATS)
SARS PLpro yeast: inhibitors of SARS-CoV papain-like protease in yeast; S. cerevisiae expressing SARS-CoV PLpro, growth rescue; control for the full effect not named in the record; Potency, µM (titrated, usually from 32.9 µM), for the others: top-dose activity, positive = growth rescue; 0.19% of 330,000 active; AID 485353; active means well fitted rising curve with a large enough effect; inconclusive means small, poorly fitted or top-dose-only effect; inactive means no such curve, though single readings can be large or run the other way; further: 0% is about no effect; nearly all actives have a fitted effect of over 55% in size; growth read by luminescence after 48 h
Marburg entry inh: Marburg virus entry inhibition | Potency, µM (titrated, usually from 37.8 µM), for inactives: at the highest dose activity change, negative = inhibition, most hits filed as inhibitors | Marburg virus pseudotyped entry inhibition, cell reporter; control for the full effect not named in the record; about a third of the inactives were read at about 46 µM | AID 540276 | 1.8% of 300,000 active; active = well fitted inhibition curve with a large enough effect; inconclusive = small, poorly fitted or top-dose-only effect, or effect the other way; inactive = flat fitted curve, though single readings scatter; tested in HEK293 cells; about a fifth of its hits are not listed in these tables; further: on the % scale 0 is the no-effect control and ±100 the full control effect; luciferase read-out
RE007 growth inh: less growth of the S. pombe RE007 Vpr strain. S. pombe RE007 Vpr strain, BacTiter-Glo ATP luminescence, 24 h; control for the full effect not named in the record. Potency, µM (titrated, usually from 92.2 µM), without a hit: at the highest dose activity change, negative = less growth. 0.21% of 360,000 active. AID 651644; active = well fitted falling curve with a large enough effect; inconclusive = small, poorly fitted or top-dose-only effect; inactive = no such curve, though single readings can be large or run the other way;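 further: on the % scale 0 is the no-effect control and ±100 the full control effect; nearly all actives have a fitted effect of over 50% in size; the assay follows cell death caused by Vpr and the record does not say whether a fall means rescue or toxicity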
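Fission yeast RE007 carrying one integrated HIV-1 vpr copy, seeded at OD 0.01 in PMG+AL medium with 23 nL pinned compound. Grown 24 h at 30 degrees; viability read by BacTiter-Glo luminescence after 5 min.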
Cruzain inh noDet: blocks cruzain activity in detergent-free assay. purified cruzain, Z-FR-AMC fluorescence, no detergent. Potency, µM, for the others: max response, negative = inhibition, actives largely listed as inhibitors. 2.3% of 200,000 active;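 further: plate controls were enzyme without inhibitor for no effect and buffer without enzyme for full effect; nearly all actives have a fitted effect of over 40% in size; top concentration of the series not given in the record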
Target sequence (P25779 123-467 limits assumed): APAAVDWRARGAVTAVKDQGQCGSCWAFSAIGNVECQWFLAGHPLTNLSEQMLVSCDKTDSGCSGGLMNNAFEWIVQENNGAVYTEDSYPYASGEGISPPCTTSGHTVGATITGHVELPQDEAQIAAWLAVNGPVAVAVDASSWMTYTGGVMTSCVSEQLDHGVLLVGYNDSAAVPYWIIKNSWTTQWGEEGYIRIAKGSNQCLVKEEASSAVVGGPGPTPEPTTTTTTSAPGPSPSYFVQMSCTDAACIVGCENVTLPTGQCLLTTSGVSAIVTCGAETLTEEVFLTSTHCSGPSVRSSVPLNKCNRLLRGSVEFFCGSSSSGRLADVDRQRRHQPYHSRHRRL
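Detergent-free condition (0.00005% Triton X-100) in acetate buffer pH 5.5 with DTT. 1.5 nM enzyme and compound were pre-mixed 15 min, then 2 uM Z-FR-AMC substrate added; reaction progress from fluorescence change between first and third reads (60 s).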
Cruzain inh Det: inhibitors of Trypanosoma cruzi cruzain with detergent. P25779. purified cruzain, Z-FR-AMC fluorescence, 0.01% Triton. Potency, µM, for inactives: max response, negative = inhibition, usual class: inhibitors. 0.43% of 200,000 active. AID 1478;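 further: plate controls were neutral wells for no effect and buffer without enzyme for full effect; nearly all actives have a fitted effect of over 40% in size; top concentration of the series not given in the record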
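Sodium acetate buffer (100 mM, pH 5.5) containing 5 mM DTT and 0.01% Triton X-100 hosted 1.5 nM cruzain and test compound for 15 min at room temperature. Cleavage of 2 uM Z-FR-AMC was then tracked by fluorescence.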
StopGo reporter: lowers the luciferase signal of an FMDV 2A StopGo reporter. AID 1159524. human cells with a luciferase reporter of 2A StopGo recoding; control for the full effect not named in the record. 1.2% of 410,000 active. Potency, µM (titrated, usually from 57.9 µM), inactives show top-dose signal change, negative = less light; active = well fitted falling curve with a large enough effect; inconclusive = small, poorly fitted or top-dose-only effect; inactive = no such curve, though single readings can be large or run the other way; tested in HEK293T cells; further: on the % scale 0 is the no-effect control and ±100 the full control effect; nearly all actives have a fitted effect of over 45% in size; luciferase light after 4 h
NS1 inh: inhibitors of influenza NS1 protein function. S. cerevisiae slowed by influenza A NS1, growth recovery by OD600. Potency, µM (doses to about 46.1 µM), inactives show at the top dose activity, positive = more growth. 0.4% of 270,000 active. AID 2326; active means well fitted rising curve with a large enough effect; inconclusive means small, poorly fitted or top-dose-only effect; inactive means no such curve, though single readings can be large or run the other way; further: nearly all actives have a fitted effect of over 50% in size
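S. cerevisiae expressing influenza A NS1, grown in glucose, washed, then diluted 1:100 into pH 6.0 -URA galactose medium with 23 nl compound. Growth recovery read as OD600; NS1-free strain serves as control.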
Lassa entry inh: inhibitors of Lassa virus binding or cell entry; Lassa virus pseudotype entry inhibition, cell reporter; control for the full effect not named in the record; Potency, µM (series often up to 37.9 µM), for the others: at the top dose activity change, negative = inhibition, most hits filed as inhibitors; 1.2% of 300,000 active; active means well fitted inhibition curve with a large enough effect; inconclusive means small, poorly fitted or top-dose-only effect, or effect the other way; inactive means flat fitted curve, though single readings scatter; tested in HEK293 cells; further: on the % scale 0 is the no-effect control and ±100 the full control effect; nearly all actives have a fitted effect of over 50% in size; luciferase read-out
Active calls of the source: *; ? = inconclusive; . = not tested or not shown; & = joins results of further samples; [ ] = remark or other dose. Unless noted, the call rests on the fitted dose curve; in most records, active means well fitted curve in the direction sought with a large enough effect; inconclusive means small, poorly fitted or top-dose-only effect, or another doubt; inactive means no such curve, though single readings can be large; an effect the other way counts as inactive or inconclusive. Potency means the concentration at half of the fitted maximal effect.

entry	mol	SARS PLpro yeast	Marburg entry inh	RE007 growth inh	Cruzain inh noDet	Cruzain inh Det	StopGo reporter	NS1 inh	Lassa entry inh
1	CC(c1ccco1)N(C(=O)Nc1ccccc1)C1CCCCC1 (stereo unspecified)	6%	-1%	-2%	1%	-3.7%	25%	-15%	-3%
2	COc1cc2c(cc1OC)C(=O)CCC2	.	?	-9%	.	.	-12%	.	17%
3	COCCOc1cc(NC(=O)c2cccc(OC)c2)c(Cl)cc1Cl	-1%	-19%[46.1 µM]	2%	.	.	-5%	.	-7%
4	CC(=O)N1C(=O)/C(=C2\SC(=S)N(NS(=O)(=O)c3ccc(C)cc3)C2=O)c2ccccc21	0%	11%	-5%	.	.	-27%	2%	-17%
5	Cn1ncc(Cl)c1C(=O)N1CCOCC1	-1%	-17%[46.1 µM]	15%	.	.	-6%	.	5%[46.1 µM]
6	COc1ccc(Cl)cc1NC(=O)CNC(c1ccccc1)c1ccccc1	-6%	?	24%	.	.	-21%	-17%	2.5µM*
7	Cc1cccc(NC(=O)CCN2C(=O)c3ccccc3C2=O)n1	7%	2%	6%	18%	1.3%	.	-57%	14%
8	O=C(NC1(C(F)(F)F)N=C2SCCN2C1=O)c1ccco1 (stereo unspecified)	-6%	5%	4%	-12%	-2.6%	-1%	-4%	-2%
9	O=C(COC(=O)c1ccc(O)cc1)NC1CCCC1	1%	.	-23%	.	.	31%[activator]	2%	.
10	CCS(=O)(=O)N1CCCC(c2nc(-c3cccc(OC)c3)no2)C1 (stereo unspecified)	-1%	1%	4%	10%	1.9%	55%[activator]	-15%	-3%
11	NS(=O)(=O)c1ccc(CCNC(=O)CNC(=O)c2ccc(Oc3ccccc3)cc2)cc1	11%	-17%[46.1 µM]	-9%	.	.	-14%	1%	14%[46.1 µM]
12	COc1ccc(OC)c(CNCc2c(C(=O)O)n(Cc3cccc(F)c3)c3cc(OC)ccc23)c1	.	.	.	5%	-2.1%	38%[activator]	.	6%[46.1 µM]
13	CC(C)(C)C(=O)c1cn(CC(=O)O)c2ccccc12	-2%	19%[46.1 µM]	23%	.	.	7%	-3%	?
14	O=C(COC(=O)CNC(=O)c1ccccc1F)NCCNC(=O)COC(=O)CNC(=O)c1ccccc1F	6%	11%	-15%	.	.	-30%	.	-9%
15	O=C(CSc1ccc(F)cc1)NCCSc1ccccc1	-5%	4%[46.1 µM]	50%	.	.	24%	.	-23%
16	O=C(CSc1n[nH]c(-c2ccccc2)n1)NC(=O)NCc1ccco1	-1%	-14%	9%	-6%	-1.4%	1%	4%	?
17	Cc1ccc(CNC(=O)CNC(=S)N(Cc2ccccc2)Cc2cccnc2)cc1	3%	?	-22%	.	.	-16%	.	?
18	CCOc1cc(C(=O)Nc2ccccc2N2CCN(S(C)(=O)=O)CC2)cc(OCC)c1OCC	-2%	-15%&-15%	3%	?	-0.3%	-10%	-50%	6%
19	CC1Cc2ccccc2N1C(=O)CNCCCN(C)C (stereo unspecified)	-1%	2%	-4%	2%	1.8%	-19%	0%	6%
20	O=C(CSc1ccc2c(c1)OCCO2)Nc1ccc(N2CCOCC2)cc1	-8%	?	16%	.	.	-10%	.	6%
21	Cn1nc(C(F)(F)F)cc1-c1ccc(/C=C(\C#N)C(=O)c2cccc(C(F)(F)F)c2)s1	1%	6%[46.1 µM]	-5%	.	.	-1%	-2%	19%
22	Cc1ccc(NC(=O)CN(C(=O)N2CCN(C)CC2)S(=O)(=O)c2ccc(C)cc2)cc1	10%	-2%	-13%	.	.	-2%	.	8%
23	Cc1ccc(OCC(O)CN2CC3(C)CC2CC(C)(C)C3)cc1 (stereo unspecified)	1%	?	-10%	-3%	1.2%	-19%	-1%	?
24	Cc1cccnc1NC(=O)C1CCN(S(=O)(=O)c2ccc3ccccc3c2)CC1	0%	14%	-6%	.	.	7%	.	15%[46.1 µM]
25	CC(C)C[C@H](N)c1cn([C@@H](CCCCN)C(=O)N2CCNCC2)nn1	-1%	.	-1%	.	.	?	-1%	.
26	COc1ccc(N2CCN(c3cc(C)c4ccc(O)cc4n3)CC2)cc1	7%	.	2%	-11%	-15%	-23%	-31%	.
27	CCN1CCC2(CC1)NC(CO)(CO)CO2	1%	-1%	7%	8%	1.3%	-14%	2%	1%
28	Cc1oc(-c2cccc(F)c2)nc1CN1CCCCC1CCc1ccccn1 (stereo unspecified)	-1%	.	-12%	.	.	-16%	3%	.
29	CC(C)NC(=O)CC(=O)N/N=C/c1c(F)cccc1Cl	0%	7%	-13%	.	.	15%	5%	-11%[46.1 µM]
30	CC(C)OCCCN1CC(=O)N2C(c3ccccc3)c3[nH]c4ccccc4c3C[C@H]2C1=O (stereo partly specified)	-3%	-11%[46.1 µM]	4%	.	.	-11%	-8%	16%[46.1 µM]
31	CNC(=S)N1CCN(c2ccccc2OC)CC1	-1%	?	4%	-4%	9.1%	3%	10%	-8%
32	O=C(Cc1cccs1)Nc1ccc(-c2nc3ccccc3[nH]2)cc1	-4%	?	-1%	-17%	-9.8%	37%[activator]	-1%	?
33	CC(=O)c1ccc(N2C(=O)[C@@H]3C(CCC(N)=O)NC4(C(=O)Nc5c4ccc(Cl)c5C)[C@@H]3C2=O)cc1 (stereo partly specified)	1%	?	14%	?	2.2%	0%	-2%	-9%
34	Cc1cccc(C(=O)NNS(=O)(=O)c2ccccc2[N+](=O)[O-])c1	-8%	-14%	27%	0%	-3.2%	6%	18%	-7%
35	CCOC(=O)c1sc(NC(=O)CNC(=O)Cn2cnc3sc(C)c(C)c3c2=O)nc1C	-4%	18%	-6%	?	-3.0%	7%	4%	18%
36	CC(C)c1ccc(NC(=O)c2cc(S(=O)(=O)N3CCc4ccccc4C3)ccc2F)cc1	.	.	.	2%	1.6%	1%	.	21%[46.1 µM]
37	Cc1cc(OCc2nnc(SCC(=O)O)n2-c2ccccc2)ccc1Cl	2%	-25%[46.1 µM]	26%	.	.	1%	26%	-13%[46.1 µM]
38	O=C(NCc1ccco1)c1ccc2c(c1)N(Cc1cccc(Cl)c1)C(=O)c1ccccc1S2(=O)=O	.	.	.	?	-3.6%	4%	.	2%[46.1 µM]
39	CC(=C/c1ccco1)/C=N/NC(=O)c1nnn(-c2nonc2N)c1CN(C)C	-4%	-1%[46.1 µM]	-18%	.	.	5%	.	-18%[46.1 µM]
40	COc1ccc(NC(=O)c2nc(-c3ccc(C)cc3)n3c2CCCCC3)c(OC)c1	.	.	.	7%	-1.6%	-18%	.	-24%[46.1 µM]
41	COc1ccc(S(=O)(=O)Nc2ccc3c(c2)N(C(C)=O)CCC3)cc1	7%	-27%	-29%	.	.	?	.	?
42	CCCCC(=O)OCC(=O)N1N=C(c2c[nH]c3ccccc23)C(O)C1c1ccc(OC)cc1 (stereo unspecified)	1%	.	7%	.	.	-37%	18%	.
43	CCOC(=O)Cc1ccc(NC(=O)Nc2cccc(OCc3cc(=O)n4cc(C)ccc4n3)c2)cc1	.	.	.	-11%	3.9%	-12%	.	-16%[46.1 µM]
44	C=CCNC(=S)N(CC=C)C1CCS(=O)(=O)C1 (stereo unspecified)	5%	-5%	.	1%	-0.5%	-16%	9%	8%
45	COc1ccc(C(=O)/C(C)=N/O)cc1OC	6%	0%	11%	-3%	-3.1%	.	-7%	-9%
46	O=C(COc1ccc(Cl)cc1)NCC(=O)N/N=C/c1cccs1	1%	.	5%	.	.	-17%	-4%	.
47	COc1ccc(S(=O)(=O)N(CC(=O)NC2CC2)C2CCCCC2)cc1Cl	7%	4%	2%	20%	0.9%	.	-21%	7%
48	CCCc1cc(=O)[nH]c(SCC(=O)N2CCN(c3ccccc3OC)CC2)n1	.	13%[46.1 µM]	.	-8%	-6.2%	-8%	.	16%[46.1 µM]
49	CCOC(=O)c1c(C)c(C(=O)NCc2ccc(Cl)cc2)c(C)n1C	.	-1%[46.1 µM]	.	-14%	-1.2%	-6%	.	.
50	CCNC(=S)N1CCN(c2cccc(C(F)(F)F)c2)CC1	-25%	?	17%	0%	-6.0%	?	-14%	-18%
51	CCOC(=O)/C=C/C(=O)Nc1ccccc1-c1ccccc1NC(=O)/C=C/C(=O)OCC	-4%	?	-21%	16%	-13%	?	2%	13µM*
52	O=C(CN1C(=O)C2CC=CCC2C1=O)Nc1ccc(S(=O)(=O)N2CCOCC2)cc1 (stereo unspecified)	-5%	16%[46.1 µM]	6%	.	.	-4%	.	2%
53	CCOc1ccc(OCCSc2nc(-c3ccccc3)cc(=O)[nH]2)cc1	3%	16%[46.1 µM]	3%	.	.	-13%	3%	-18%
54	COC(=O)c1ccc(NC(=O)NCCCl)cc1	0%	1%[46.1 µM]	9%	.	.	8%	.	13%[46.1 µM]
55	COc1cc(C(=O)NCCSc2ccc(Br)cc2)cc(OC)c1OC	-1%	?	4%	.	.	?	.	-5%
56	Cc1ccc(S(=O)(=O)NC(=O)c2cc(C)n(CC(c3ccccc3)N(C)C)c2C)cc1 (stereo unspecified)	0%	.	15%	.	.	0%	2%	.

(further entries)
entry	mol	SARS PLpro yeast	Marburg entry inh	RE007 growth inh	Cruzain inh noDet	Cruzain inh Det	StopGo reporter	NS1 inh	Lassa entry inh
57	Cc1ccc(-n2ncc(C(=O)NCCN3CCCC3)c2C2CCN(C(=O)OC(C)(C)C)CC2)cc1	.	.	.	9%	-1.6%	4%	.	-23%[46.1 µM]
58	COc1ccc(C2(O)C(=O)Nc3ccc(C)cc32)cc1OC (stereo unspecified)	1%	3%	-8%	.	.	-21%	-1%	5%
59	CC12CCC(=O)C=C1CCC1C2C(O)CC2(C)C(c3csc(N)n3)CCC12 (stereo unspecified)	.	8.9µM*	-4%	.	.	?	.	-16%[46.1 µM]
60	Cn1cccc1C(=O)OCc1ccc(C(C)(C)C)cc1	-2%	21%[46.1 µM]	-15%	.	.	33%[activator]	-4%	-30%
61	O=C1c2ccccc2C2(c3cc(C(F)(F)F)cc(C(F)(F)F)c3)NCCN12 (stereo unspecified)	-3%	-24%[46.1 µM]	5%	.	.	-20%	10%	?

An unsorted share of the library. Share with any hit: about 4.7%.
